# RanGTP-Impb inh: disruptors of Ran-importin-beta complex formation – biochemical, FRET, CFP-Ran, YFP-importin-beta, homogeneous, primary screen. cell-free CFP-Ran/YFP-importin-beta FRET ratio. inhibition, % (no concentration beside the values). 300,000 compounds, 1.1% hits;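 active = most replicates above 15%; inconclusive = exactly half above 15%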;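 note: 0% = DMSO wells and 100% = Ran loaded with GDP instead of GTP; wells of about 40 µL received 100 nL stock; the first replicate is given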
# A1 inh: inhibitors of the anti-apoptotic protein A1, read as caspase activation. AID 2462. caspase activation, % (concentration not given with the values). 330,000 compounds, 0.066% hits. MEF A1-2A-BIM cells, Caspase-Glo 3/7 luminescence, 3 h; percent of clofoctol response, vehicle zero;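 active = over half of replicate activation scores above 10%, or exactly half above 10 with the replicate mean above 10; inconclusive = replicate mean below 10 yet half the replicates above 10; inactive = over half of replicates below 10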;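 note: wells of about 30 µL received 50 nL stock; many hits fall short of the cut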
# T cruzi repl: blocks replication of Trypanosoma cruzi; T. cruzi beta-gal in NIH3T3, luminescence, 90 h; inhibition, % (concentration not given with the values); 300,000 compounds, 1.4% hits;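 active = mean inhibition across valid replicates above about 55%, limit read from the data; inconclusive = mean below that limit but half or more replicates reach it; inactive = mean below it, under half of replicates reach it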;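 note: signal also drops with host cell toxicity which is not excluded here; 0% = plate median of DMSO wells and 100% = zero luminescence signal; higher percent means less beta-gal luminescence so fewer parasites; stock transfer was 50 nL into about 50 µL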
# MLL AF4-AF9 inh: MLL-AF4/AF9 protein interaction inhibition. AlphaScreen, biotin-AF4 peptide binding to FLAG-AF9. inhibition, % at 10 µM. 350,000 compounds, 0.47% hits;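 active = every replicate reaching a set inhibition limit, whatever the replicate mean, cut at about 25% in these data; inconclusive = mean inhibition reaches that limit but some replicates miss it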;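 note: 0% = plate neutral control median and 100% = total signal loss; the record names both 10 and 1 µM as test concentration; the first replicate is given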
# Target sequence (P42568 whole entry, looked up): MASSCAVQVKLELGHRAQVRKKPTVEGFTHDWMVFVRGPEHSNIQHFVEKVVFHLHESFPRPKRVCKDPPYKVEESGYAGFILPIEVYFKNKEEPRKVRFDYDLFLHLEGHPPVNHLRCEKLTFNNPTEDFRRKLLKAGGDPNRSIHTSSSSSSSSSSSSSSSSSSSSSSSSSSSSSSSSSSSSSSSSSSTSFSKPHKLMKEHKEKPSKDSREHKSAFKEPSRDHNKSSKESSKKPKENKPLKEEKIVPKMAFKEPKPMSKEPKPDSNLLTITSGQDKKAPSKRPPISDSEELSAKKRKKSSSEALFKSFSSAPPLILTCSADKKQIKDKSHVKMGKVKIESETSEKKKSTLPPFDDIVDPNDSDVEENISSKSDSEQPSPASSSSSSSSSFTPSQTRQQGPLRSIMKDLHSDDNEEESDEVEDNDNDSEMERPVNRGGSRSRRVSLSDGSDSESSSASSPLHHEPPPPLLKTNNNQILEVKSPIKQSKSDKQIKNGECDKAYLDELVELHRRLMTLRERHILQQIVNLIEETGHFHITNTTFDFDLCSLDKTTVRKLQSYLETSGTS
# Beta cell apopt: beta cell apoptosis inhibition. INS-1E cytokine-induced death, ATP luminescence, 48 h; percent of positive-control rescue, neutral wells zero. protection from apoptosis, % (concentration not given with the values). AID 435005. 300,000 compounds, 0.8% hits;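 active = all replicates at 75% or more, or half of them and the mean; inconclusive = half reach 75% but not the mean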;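 note: 0% = cytokine-treated negative control wells and 100% = positive control rescue; higher means more ATP so stronger rescue from cytokine killing; wells of about 40 µL received 100 nL stock; the first replicate is given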
# Vif A3G: HIV-1 Vif–A3G interaction blockers – biochemical, TR-FRET, GST-Vif 1-94, biotin-A3G peptide, dose response retest, primary screen (AID 1117319); TR-FRET GST-Vif / biotin-A3G peptide binding; higher % means a stronger effect; test concentration not given here; strong numbers were not always called active; inhibition, %, or IC50 in µM where a hit was titrated; 260,000 compounds, 0.57% hits;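 active = above the screen mean plus three standard deviations and confirmed in dose response; inconclusive = results disagree or hit not tested in dose response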;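 note: Vif residues 1-94 fused to GST binding biotinylated APOBEC3G peptide 110-148; 0% = full assay without inhibitor and 100% = GST in place of GST-Vif; retest series ran down from 100 µM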
# Ecoli rRNA inh: inhibitors of bacterial rRNA selective over humanized ribosomes. GFP signal change (wild-type ribosome), % (test concentration not listed). 350,000 compounds, 1.6% hits. E. coli WT GFP vs humanized-ribosome RFP mutants, fluorescence, 24 h; active compounds read low; DMSO median 0, no signal -100;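 active = significant combined selectivity score with lowered wild-type GFP, culture density cut under 30%, mutant RFP and density less affected; inactive = any of these conditions unmet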; note: one replicate is shown; some compounds called inactive have numbers as strong as hits
# Calb FLC: affects C. albicans growth with fluconazole | C. albicans CaCi-2 (fluconazole-resistant clinical isolate) + fluconazole, Alamar Blue growth, 48 h | growth inhibition, % (concentration not given with the values) | 300,000 compounds, 0.57% hits | AID 1979;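 active = most replicates above 75%; inconclusive = exactly half above 75%; inactive = most below 75%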;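 note: all wells also contain fluconazole at 8 µg/ml as a sub-toxic cotreatment; 0% = median of DMSO wells and 100% = median of geldanamycin control wells; wells of about 8 µL received 7.5 nL stock; the first replicate is given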
# Ecoli rRNA inh OD600: recorded beside Ecoli rRNA inh, whose call it bears; OD600 change, %; measured here: OD600 growth;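 optical density of the mix in the first replicate; 0 = DMSO median and -100 = no signal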
# Ecoli rRNA inh RFP: further read-out of Ecoli rRNA inh, marked with its call; RFP signal change, %; measured here: RFP humanized mutant strains;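 first replicate; 0 = DMSO median and -100 = no signal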
# An asterisk follows results filed as active; ? = inconclusive; . = not tested or not shown. An excerpt. The share of hits here may be higher or lower than overall.
SMILES,RanGTP-Impb inh,A1 inh,T cruzi repl,MLL AF4-AF9 inh,Beta cell apopt,Vif A3G,Ecoli rRNA inh,Ecoli rRNA inh OD600,Ecoli rRNA inh RFP,Calb FLC
Cc1ccccc1NC(=O)Cn1cc(C(=O)C2CC2)c2ccccc21,3.5,1.4,1,-11,-2,.,7,11,2.1,3
Cc1oc(C(=O)O)cc1COc1cccc2cccnc12,?,0.0,-5,.,-2,?,.,.,.,9
Cc1nc(N2CCOCC2)nc(N2CCN(c3ccccc3)CC2)c1[N+](=O)[O-],-3.6,-0.1,4,.,2,27%,.,.,.,-9
Cc1ccc(-n2c(SCC(=O)Nc3cccc(C)c3)nc3c(oc4ccccc43)c2=O)cc1,-3.1,0.7,27,6.5,.,.,18,2,-1.2,-2
CN(C)/C=N/C(=S)Nc1ccc(Cl)c(Cl)c1,-2.8,-7.8,2,0.3,1,5%,-28,-32,-0.9,-11
O=S1(=O)CCC(NS(=O)(=O)/C=C/c2ccccc2)C1 (stereo unspecified),-0.2,0.3,5,.,-1,-3%,.,.,.,-3
CCn1nnnc1SCC(=O)Nc1ccc(F)cc1,0.2,0.8,-14,-0.1,-1,.,0,16,-2.8,-5
Cc1ccc2oc(=O)c3cnn(CC(=O)NCCN(C)C)c3c2c1,3.0,0.2,13,9.1,-4,30%,2,7,-0.4,27
O=C(COc1cccc2c1CCN(Cc1ccc(Br)cc1)C2=O)NCc1ccco1,0.8,0.5,-32,-3.6,-12,.,.,.,.,-3
COCCCNC(=O)c1cc(-c2cccnc2)nc2ccc(S(=O)(=O)N3CCCCCC3)cc12,3.9,1.1,-8,0.1,-4,.,-6,0,-4.7,2
O=Nc1c(O)n(Cc2cccc(Cl)c2)c2ccccc12,?,-0.1,13,.,-8,0%,.,.,.,84*
Cc1ccccc1C(=O)Nc1ccc(C(=O)NNC(=O)CCCOc2ccc(Cl)cc2Cl)cc1,5.5,0.2,11,.,-2,-5%,.,.,.,-16
CC(C)C(O)(C#CCN1CCCCC1)C(C)C,-3.9,0.5,18,.,-7,.,.,.,.,2
CCCCn1c(N)c(N(CCOC)C(=O)c2cccc(N3C(=O)c4ccccc4C3=O)c2)c(=O)[nH]c1=O,-0.2,0.3,-5,-1.1,.,4%,6,5,-2.2,5
COc1ccccc1NC(=O)CSc1nc(=O)n(CCN(C)C)c2c1CCCC2,-1.3,0.0,7,1.8,-2,2%,9,8,1.0,6
CN1C(=O)[C@H]2[C@@H](c3ccc(F)cc3)N3C(=O)c4ccccc4NC(=O)[C@@]3(C)[C@H]2C1=O,1.1,-0.9,-26,.,-6,.,.,.,.,-6
CCC(=O)N1CCc2cc(S(=O)(=O)CCC(=O)Nc3ccc(CC)cc3)ccc21,6.1,-0.1,2,.,6,-7%,.,.,.,2
CCN(CC)S(=O)(=O)c1ccc2oc(C(=O)NC(C)C)c(C)c2c1,-2.6,0.6,6,.,-2,-5%,.,.,.,21
COc1ccc(S(=O)(=O)N2CCCCCC2)cc1NC(=O)Cc1cc(OC)c(OC)c(OC)c1,1.2,-0.9,18,.,4,-1%,.,.,.,17
CCN1C(=O)[C@H]2[C@@H](c3ccc(-c4ccccc4)cc3)N[C@@](Cc3ccccc3)(C(=O)OC)[C@H]2C1=O,1.9,0.2,14,-1.8,-1,.,6,5,2.7,-10
Cc1c(Cl)cccc1N1CC(C)(C)C1=O,3.3,0.1,-15,-1.1,-9,-7%,21,10,-1.2,13
Cc1ccc(S(=O)(=O)N2CCOCC2)cc1C(=O)NC(=S)N(Cc1ccccc1)C(C)C,1.5,-0.8,-13,.,3,4%,.,.,.,?
COc1cc(NC(=S)Nc2ccc(OC(F)F)cc2)cc(OC)c1,-3.5,-0.1,4,4.1,2,-7%,6,2,12,-9
Cn1nc(CC(=O)NCCN2C(=O)CSC2=O)c2ccccc2c1=O,-1.9,0.3,-11,.,-5,73%,.,.,.,-5
Nc1nnn(CC(=O)N/N=C/c2cn[nH]c2-c2ccccc2)n1,0.5,0.5,-28,-6.5,-3,.,1,-2,-3.9,0
CC1=C(C(=O)Nc2cccc(C(=O)N3CCC(C(N)=O)CC3)c2)SCCO1,?,-0.5,-12,-1.9,-1,.,19,10,5.1,22
Cc1ccc(S(=O)(=O)c2ccc(NC(=O)c3c(F)cccc3F)cc2)cc1,1.8,0.0,-5,0.2,4,-9%,-13,-23,-11,9
CC(C(=O)N(C)C)N1c2cccc3cccc(c23)S1(=O)=O (stereo unspecified),4.5,0.4,-13,-1.7,4,.,8,13,1.8,9
O=C(N/N=C/c1cccc([N+](=O)[O-])c1)c1ccccc1-n1cccc1,0.5,-0.1,9,11,1,-2%,4,-6,-3.0,4
N#CCC(=O)Nc1ccc(C(=O)NCC(c2ccco2)N2CCCCC2)cc1 (stereo unspecified),-3.3,1.0,-12,0.4,1,-5%,17,20,12,-3
CN1CC(=O)N/C1=N\C(=O)Nc1ccc(O)cc1,-1.2,-1.3,-8,0.3,2,-4%,0,4,8.0,2
CCOc1ccc(S(=O)(=O)Nc2cc(Cl)ccc2O)cc1,-3.4,0.4,-3,.,-3,10%,.,.,.,-8
CC(C)(C)C(=O)N1CCN(c2ccc([N+](=O)[O-])cc2-n2cccc2)CC1,-0.3,-0.5,-3,-9.6,-1,-2%,3,4,2.6,0
CSc1nc(-c2ccco2)nn1C(=O)Cc1ccccc1,4.5,1.8,-19,.,-13,?,.,.,.,1
C=CCn1c(Cc2nc3ccc(Cl)cc3[nH]2)n[nH]c1=S,1.0,-0.6,2,.,.,?,.,.,.,-5
COCCCN(C(=O)CCSc1ccc(F)cc1)c1c(N)n(Cc2ccccc2)c(=O)[nH]c1=O,0.3,-1.2,6,-0.4,.,-2%,20,9,6.9,15
Cc1ccc(C(=O)C2=C(O)C(=O)N(Cc3cccnc3)C2c2ccc(OC(C)C)cc2)o1 (stereo unspecified),2.7,1.1,-3,-0.1,2,.,1,-3,-0.8,-15
COC(=O)c1ccc(S(=O)(=O)N2CCCN(Cc3cccc(Br)c3F)CC2)n1C,1.1,-0.2,21,3.6,14,-7%,-21,-30,1.4,19
O=S(=O)(NCC1NCCc2ccccc21)c1ccccc1 (stereo unspecified),7.9,0.2,14,2.1,10,-4%,7,7,0.4,-17
O=C(NN1CCOCC1)c1ccc(Br)cc1,-0.7,0.5,-5,-2.7,-4,.,3,1,-1.8,2
CCOc1ccc(C(C)=O)cc1Cn1c(=O)oc2ccccc21,-1.7,0.2,10,2.4,1,-13%,-11,-7,-0.9,1
Cn1nccc1C(=O)N1CCN(c2ncccn2)CC1,-2.4,-0.5,1,-0.4,-1,.,21,14,3.5,-6
C=CCn1c(SCC(=O)Nc2cccc(S(N)(=O)=O)c2)nc2sc(C)c(C)c2c1=O,.,-0.8,.,3.9,9,.,-45,-66,-4.0,.
Cc1cc(C)n2nc(CC#N)c(C#N)c2n1,-1.8,0.4,-8,-1.2,1,0%,21,12,10,-4
COc1cccc(CSc2nc3sc(C)c(C)c3c(=O)n2Cc2ccco2)c1,3.1,-0.3,46,.,3,0%,.,.,.,2
O=C(Oc1cccc2ccccc12)c1cc(Cl)nc2ccccc12,-1.1,1.0,-13,-2.1,-2,.,-2,-1,-1.1,26
Cc1ccc(C)c(NC(=O)CCN2C(=O)c3ccccc3C2=O)c1,-3.6,0.4,-6,-3.0,2,5%,17,19,1.2,-1
S=c1[nH]nc(/C=C/c2ccccc2)o1,0.2,-1.7,-19,-2.3,-4,3%,4,3,-3.1,3
CCOC(=O)c1c(NC(=O)COC(=O)c2cc(OC)c(OC)cc2[N+](=O)[O-])sc(C)c1C,-3.1,0.1,2,4.9,-3,.,5,12,-0.5,1
COc1cc(C2C(C#N)=C(N)N(N(C)C)C3=C2C(=O)CCC3)ccc1O (stereo unspecified),0.8,-0.8,-13,2.1,-1,4%,8,2,-0.2,1
COc1ccc(N2CCN(C(=O)CC(NC(N)=O)c3cccc(Oc4ccccc4)c3)CC2)cc1 (stereo unspecified),1.6,0.8,3,.,-3,-1%,.,.,.,3
Cc1ccc(NS(=O)(=O)c2ccc3c(c2)NC(=O)CO3)cc1Cl,28,0.9,-1,4.5,-8,.,-1,-1,0.1,14
Brc1ccc(-c2ccc(/C=N/Nc3nc(N4CCOCC4)nc(N4CCOCC4)n3)o2)cc1,?,0.1,14,-1.2,13,.,21,18,2.3,23
Cc1ccccc1-c1n[nH]c(=S)o1,28,-1.3,-10,.,.,-40%,.,.,.,1
N#Cc1cccc(NC(=O)CCN2C(=O)C3CCCCC3C2=O)c1 (stereo unspecified),.,0.1,.,-2.1,-6,-4%,0,5,-1.8,.
CCOc1ccc(NS(=O)(=O)CC23CCC(CC2=O)C3(C)C)cc1 (stereo unspecified),-1.5,-0.1,3,.,1,4%,.,.,.,-2
CCOC(=O)C[C@H]1c2ccc(C(F)(F)F)cc2S(=O)(=O)N1C(C)C,1.6,-0.1,-6,3.3,-7,.,7,7,4.3,-6
Cc1ccc(N(C)S(=O)(=O)c2cc(-c3cnc(C4CC4)o3)ccc2C)cc1,1.5,0.2,39,-2.3,2,.,-8,-12,-5.1,-4
COC(=O)c1sc(NC(=O)c2c(OC)cccc2OC)c(C#N)c1C,1.1,0.6,-5,0.5,1,-165%,16,19,2.1,-9
S=C(NCCN1CCOCC1)Nc1ccc(-c2nc3ccccc3[nH]2)cc1,0.7,-2.1,-9,-0.1,17,9%,-24*,-17*,-3.7*,2
# The list goes on:
SMILES,RanGTP-Impb inh,A1 inh,T cruzi repl,MLL AF4-AF9 inh,Beta cell apopt,Vif A3G,Ecoli rRNA inh,Ecoli rRNA inh OD600,Ecoli rRNA inh RFP,Calb FLC
COc1ccc(Cl)cc1NC(=O)CN(C)C(=O)CCCc1c[nH]c2ccccc12,-1.4,-0.1,1,-1.5,-4,.,-17,-26,-1.8,-5
CCN(CC(=O)Nc1ccccc1OC)CC(=O)Nc1ccccc1C(F)(F)F,-1.2,0.4,8,2.9,5,0%,6,0,1.0,17
Cc1cc2[nH]c(=O)c(=O)[nH]c2cc1S(=O)(=O)NC1CCCCC1C (stereo unspecified),4.0,0.2,3,.,-4,2%,.,.,.,25
COc1ccc(-c2noc(-c3ccoc3C)n2)cc1,0.0,-0.2,-17,-1.3,1,0%,-6,-11,-1.8,-20
COC(=O)[C@@H](Cc1ccccc1)NC(=O)[C@H]1CCC(=O)N1C(=O)OCc1ccccc1,-1.6,1.0,-17,-1.9,-10,.,-1,6,-1.4,-1
O=C(CCNc1cc(Cl)cc(Cl)c1)c1ccco1,-3.5,0.2,25,.,-7,18%,.,.,.,-4
COc1ccc(N2C(=O)C3CCCN3C2=O)cc1 (stereo unspecified),9.5,0.7,-7,0.7,-3,-3%,.,.,.,8

# Source: PubChem BioAssay
